Sa helicase inh – inhibitors of S. aureus replicative helicase, primary screen, biochemical, fluorescence unwinding readout. replicative DNA helicase (DnaC/DnaB), Staphylococcus aureus. purified S. aureus helicase, fluorescence unwinding assay; about half of the hits fall short of the stated cut. inhibition, %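 (tested at about 80 µM)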. 120,000 tested, 0.05% active;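 active = both duplicates at 50% or more, or one of them with a favoured structure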;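 also: 0% = mean of negative control wells and 100% = mean of positive control wells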
MgrA DNA FP – S. aureus MgrA activity modulators, primary screen, biochemical, S. aureus Newman, fluorescence polarization | MgrA-DNA binding | AID 602314, 2012 | 84,000 tested, 0.13% active | inhibition, %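 (about 10 µg/mL by stock and volumes)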;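 active = above 50% in either of two replicates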;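 also: 0% = protein plus DNA without compound and 100% = DNA alone without protein; higher means less MgrA bound to DNA so lower polarization; one replicate is shown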
An asterisk follows results filed as active; / = no result given. This is a subset; count on the stated rates, not on these rows.

Sa helicase inh	MgrA DNA FP	SMILES
-3.0	1.1	CC1(C)COC(O)(C(F)(F)F)CC1=O (stereo not drawn)
/	1.1	COc1cc(C2NC(=O)NC(C)=C2C(=O)OC2CCCCCCC2)cc(Cl)c1O (stereo not drawn)
-3.0	1.3	CC(C)c1ccccc1OCC(=O)c1ccc(O)cc1O
15.0	-0.2	Cc1cc(=O)oc(C)c1C(=O)NCC1COc2ccccc2O1 (stereo not drawn)
2.0	/	c1cn(-c2ncnc3sc4c(c23)CCC4)cn1
4.0	/	CCn1c(C2CC(=O)N(c3ccccc3)C2)nc2ccccc21 (stereo not drawn)
-3.0	/	CC(Sc1nc(N)cc(N)n1)C(=O)c1ccc(Br)cc1 (stereo not drawn)
-12.0	29.6	Cc1c(C#N)c2nc3ccccc3n2c(=O)/c1=C\Nc1cccc(NC(=O)c2ccccc2)c1
2.0	-2.3	Cc1n[nH]c(C)c1NC(=O)c1cc2ccccc2oc1=O
23.0	/	O=C(CCC(=O)c1cccs1)NC1=NCCS1
11.0	/	COC(=O)c1ccc(CSc2nnc(SCC(=O)Nc3ccc4c(c3)OC3(CCCCC3)O4)s2)o1
11.0	/	COc1ccc(OCC(=O)N2N=C(c3ccc(Cl)cc3)CC2c2ccco2)cc1 (stereo not drawn)
5.0	12.3	C=CCc1cc(OC)ccc1OCCCSc1ncccn1
5.0	/	Cc1ccc(S(=O)(=O)NC(=O)c2cc(/C=N/NCCC#N)n(C)c2)cc1
-26.0	/	CCCNC(=O)c1cccc(NC(=O)N2CCSc3ncccc32)c1
-13.0	/	Cc1nn(-c2ccccc2)c2sc(C#N)c(N)c12
-96.0	20.4	CN1/C(=C\C=C2\C(=O)Oc3ccccc3C2=O)C(C)(C)c2ccccc21
24.0	0.2	O=C(Nc1ccc2oc(-c3ccccc3)nc2c1)c1ccc(Br)cc1
-32.0	9.2	COc1cccc(/C(O)=C/c2nc3ccc(C(F)(F)F)cc3[nH]c2=O)c1
/	-0.2	Nc1nnc(-c2cc3cc(Cl)cc(Cl)c3oc2=O)s1
1.0	1.9	COc1cc2c(C)nc3onc(-c4ccccc4)c3c2cc1OC
/	-2.6	COc1cc(-c2nc3ccccc3c(=O)[nH]2)cc(Br)c1O
/	-11.6	Cc1cc(NS(=O)(=O)c2ccc(NS(=O)(=O)c3cccc(Cl)c3)cc2)no1
/	0.1	c1ccc(-c2nnsc2-c2ccccc2)cc1
3.0	/	COc1ccc(/C=C2/CN(C)C/C(=C\c3ccc(OC)c(OC)c3)C2=O)cc1OC
6.0	/	Cc1cc(C)c(C#N)c(Nc2ccc3c(c2)OCCO3)n1
3.0	/	COc1ccc(-n2c(Cn3c(=O)sc4ccccc43)nnc2SCC(=O)N2CCCC2)cc1
/	-0.4	Cc1cc(NC(=O)NC(=O)c2c(F)cccc2Cl)no1
/	-2.6	COC(=O)CSc1nnc(COc2ccccc2)o1
-3.0	1.1	CCN(CC)C(=O)Cc1nc(-c2ccc(OC)cc2)no1
-1.0	/	CCC(=O)N1C(C(=O)O)CSC1c1ccc(OC)cc1 (stereo not drawn)
0.0	/	NC(=O)C1CCCNC1 (stereo not drawn)
6.0	/	NC(=O)CSc1nc2sc3c(c2c(=O)n1C1CCCC1)CCCC3
-17.0	/	COc1ccc(Cl)cc1NC(=O)CN(C)C(=O)c1cccnc1SCc1c(C)noc1C
/	-0.2	COc1ccccc1N1C(=O)C2C3C=CC(C2C1=O)C1C2C(=O)N(c4ccccc4OC)C(=O)C2C31 (stereo not drawn)
-12.0	/	CCn1c(=O)/c(=C\c2ccc(Cl)cc2)s/c1=C(/C#N)C(N)=O
-13.0	0.7	Cc1ccc(S(=O)(=O)n2nc(C)cc2C)cc1
0.0	-0.9	CCN(CC)S(=O)(=O)c1cc(-c2nnc(-c3ccc(C)cc3)o2)ccc1C
3.0	/	COC(=O)c1ccccc1NC(=O)CSc1nc2c(c(=O)[nH]1)CCCC2
-15.0	/	COC(=O)C1=C(C)NC(C)=C(C(=O)OC)C1c1ccccc1OCc1c(C)no[n+]1[O-]
12.0	-5.6	CCOC(=O)CC(N)c1cccc(O)c1 (stereo not drawn)
/	2.3	Cc1ccc(C)n1N(C)c1cccc(F)c1C#N
1.0	2.0	C/C(=N/OC(=O)CSc1nc(-c2ccco2)cc(C(F)(F)F)n1)c1ccccc1
-35.0	/	O=C1CSC2(CCCC2)N1
-2.0	11.9	Cc1cc(C)c2cc(C3C(C#N)=C(N)OC4=C3C(=O)CC(C)(C)C4)c(=O)[nH]c2c1 (stereo not drawn)
20.0	1.9	NC(=O)/C(=C\c1ccco1)NC(=O)c1ccc(Br)cc1
-15.0	/	COc1ccccc1NC(=O)C1=C(C)Nc2nc3ccccc3n2C1c1cccnc1 (stereo not drawn)
-7.0	/	CCc1ccc(NC(=S)NCC(C)(C)N2CCOCC2)cc1
14.0	-5.5	O=c1oc2cc(OCc3ccc(F)cc3F)ccc2cc1-c1ccccn1
8.0	/	CC(C)NS(=O)(=O)c1ccc(CN2C(=O)c3cccnc3C2=O)s1
3.0	/	CN(CC(=O)NCc1ccccc1)S(=O)(=O)c1ccc(C(=O)N2CCOCC2)s1
-9.0	/	CN(C)C(C(=O)NC1CCCC1)c1ccc(Cl)cc1 (stereo not drawn)
15.0	4.8	Cc1cccc(N2Cc3cccc(C(=O)O)c3C2=O)c1
24.0	0.5	O=C(CSc1ccc(Cl)cc1)Nc1ccccc1
6.0	/	COc1cc2nc(CN3CCC(C)CC3)[nH]c(=O)c2cc1OC
/	-2.4	Cc1ccc2nc(-c3cccc(C#N)c3)cn2c1
-118.0	/	C=CCN1C(=O)/C(=C/c2c(NCc3ccco3)nc3ccccn3c2=O)SC1=S
3.0	-3.2	COc1ccc(C(N)=NC#N)cc1
21.0	/	Cc1cc(=O)[nH]c(SCC(=O)NC(C)C2CC3CCC2C3)c1C#N (stereo not drawn)
/	0.0	COc1cc(C2NC(=O)NC(C)=C2C(=O)OCCOc2ccccc2)cc(Cl)c1O (stereo not drawn)

(listing goes on)
Sa helicase inh	MgrA DNA FP	SMILES
-7.0	/	NC(=O)c1ccc(N(S(=O)(=O)C(F)(F)F)S(=O)(=O)C(F)(F)F)cc1
/	2.2	Cc1cc(C)c2c(n1)sc1c(N3CCN(C)CC3)ncnc12
5.0	1.6	CC(C(=O)Nc1cccc(F)c1)C1Sc2ccccc2NC1=O (stereo not drawn)
-1.0	/	COc1cccc(CN(C)CN2C(=O)NC3(CC(C)(C)NC(C)(C)C3)C2=O)c1OC
-7.0	/	CCOc1ccccc1OC(C)C(=O)NC(C)(C#N)C(C)C (stereo not drawn)
4.0	-0.8	COc1ccc(/C=N/c2nnc(-c3ccccc3)c(-c3ccccc3)n2)c(C(=O)O)c1OC
-11.0	3.1	O=C1OCC(CO)N1c1ccccc1 (stereo not drawn)
10.0	/	COc1cc(C=Nc2ccc(NC(C)=O)cc2)ccc1OC(=O)c1cccs1
/	3.4	CO/N=C(/C(=O)NC1C(=O)N2C(C(=O)O)=C(COC(N)=O)CSC12)c1ccco1 (stereo not drawn)
14.0	/	CC1=C(c2ccccc2)S(=O)(=O)NC1=NCc1ccccc1
23.0	2.0	COC(=O)C1COc2ccccc2O1 (stereo not drawn)
8.0	3.0	O=C(CC1C(=O)N(c2ccccc2)C(=S)N1CCc1ccc(F)cc1)Nc1ccc(F)cc1 (stereo not drawn)
-6.0	/	CCCCN1CC(O)=C(c2nc(-c3ccc(Cl)cc3)cs2)C1=N
-19.0	5.7	CC(Sc1nnc(N)s1)C(=O)Nc1cccc2ccccc12 (stereo not drawn)
-24.0	/	Cc1ccc(CCNS(=O)(=O)c2cc3c(cc2Cl)NC(=O)CO3)cc1
/	-3.2	O=c1[nH]nc(C2c3ccccc3Oc3ccccc32)o1
/	-0.9	N#CCCn1cccc1CN1CCOCC1
5.0	-1.6	CC(C(=O)N1CCCCC1)n1c2ccccc2c2cnn(C)c(=O)c21 (stereo not drawn)
/	1.1	NC(=O)c1c(/N=c2\oc3ccc(Br)cc3cc2C(N)=O)sc2c1CCCC2
6.0	/	CSCc1c(C(=O)NCc2ccc3c(c2)OCO3)oc2ccccc12
/	1.7	CCOC(=O)CCN1C(=O)c2ccccc2C1=O
-1.0	-1.0	CCC(Sc1nnc2c3ccccc3n(C)c2n1)C(=O)Nc1ccc(S(N)(=O)=O)cc1 (stereo not drawn)
0.0	-1.4	CCCNC(=O)c1ccc2c(c1)N(CC)CCS2
20.0	0.8	COc1ccc(CC(=O)c2cc(OC)c(OC)cc2CC(=O)O)cc1OC
-2.0	3.8	COc1cc(C(=O)/C=C/Nc2ccccc2C(N)=O)cc(OC)c1OC
-8.0	/	CN1C(=O)c2ccccc2C(C(=O)NC2CC2)C1c1c[nH]c2ccccc12 (stereo not drawn)
-7.0	/	CCc1ccc(N=Nc2sc3nc4c(c(=O)n(C)c(=O)n4C)n3c2O)cc1
-19.0	/	COC(=O)c1csc(S(=O)(=O)N=S(C)(=O)c2ccccc2)c1OC (stereo not drawn)
/	0.6	O=C(c1ccc(F)cc1)c1cccnc1
15.0	/	COc1ccc2c(Sc3ccccc3)c(C(=O)NCCN3CCN(C)CC3)[nH]c2c1
/	-2.8	O=C(O)CC(c1ccco1)N1Cc2ccccc2C1=O (stereo not drawn)
10.0	-1.2	COc1ccc(-c2cc(=O)c3cc(OC(=O)Cc4ccccc4)ccc3o2)cc1
28.0	/	O=S(=O)(Cc1ccc(Cl)cc1)c1ccc(C(F)(F)F)cn1
28.0	4.7	CC1=CC(=C2C(=O)c3ccccc3C2=O)C=C(C)N1CC(C)C
-2.0	/	O=C(O)/C=C/c1ccc2noc(-c3ccccc3)c2c1
15.0	/	CCOC(=O)N1CCC(NC(=O)c2cnn3ccccc23)CC1
-44.0	/	Cc1onc(-c2c(Cl)cccc2Cl)c1NC(=O)NC(C)C
-2.0	-2.7	COc1cc(CNc2nn[nH]n2)ccc1OCC(N)=O
/	-2.8	CCOC(=O)c1ccc(N2CCOCC2)c(N=Cc2cc(Cl)ccc2O)c1
-4.0	-2.7	CCOC(=O)c1cc(C)n(-c2ccc(C)c(C)c2)c1C
/	-0.3	NC(=S)Nc1ccccc1OC(F)(F)F
-7.0	/	Oc1ccccc1-c1nc(N2CCCCC2)c2ccccc2n1
2.0	/	O=C(CCN1CCN(c2ccccc2)CC1)N/N=C1/CCCc2ccccc21
0.0	/	CCS(=O)(=O)NCCc1csc2nc(-c3ccccc3)nn12
15.0	41.8	Cc1ccc(/C=C2/SC(=O)NC2=S)o1
10.0	/	CN(C)S(=O)(=O)c1ccc2nnn(OCC(=O)NC34CC5CC(CC(C5)C3)C4)c2c1
/	-4.0	CCCc1c(C)nc(SCC(=O)C(C)(C)C)[nH]c1=O
/	0.6	CN(C(=O)Nc1ccccc1)n1cnc2ccccc2c1=O
10.0	/	NS(=O)(=O)C1CCC(F)CC1 (stereo not drawn)
/	1.5	COc1ccc2c(OC)c3ccoc3nc2c1OC
22.0	/	CC(=O)N1c2ccc(S(=O)(=O)N3CCCN(Cc4ccc(F)cc4)C3)cc2CC1C (stereo not drawn)
/	-1.6	COc1cccc2c(Cl)c(CCCl)c(C)nc12
5.0	-1.5	O=C(C1CCCN(CC2CC3C=CC2C3)C1)N1CCC(Cc2ccccc2)CC1 (stereo not drawn)
/	-1.3	COc1ccc(Cl)cc1-c1nc(C=Nc2ccc(C)cc2Br)c(O)o1
/	-1.4	CCOC(=O)N1CCC(NC(=O)Nc2ccc(F)cc2)CC1
12.0	1.5	COC(=O)c1ccccc1NC(=O)c1ccccc1Br
9.0	-2.2	C=CCn1c(O)c(C#N)c(C)cc1=O
/	0.4	O=C(NCc1cccnc1)C1CCC(c2ccc(Cl)cc2)CC1 (stereo not drawn)

Compounds shown so far that contain a cyano group, in the order listed:
Sa helicase inh	MgrA DNA FP	SMILES
-12.0	29.6	Cc1c(C#N)c2nc3ccccc3n2c(=O)/c1=C\Nc1cccc(NC(=O)c2ccccc2)c1
5.0	/	Cc1ccc(S(=O)(=O)NC(=O)c2cc(/C=N/NCCC#N)n(C)c2)cc1
-13.0	/	Cc1nn(-c2ccccc2)c2sc(C#N)c(N)c12
6.0	/	Cc1cc(C)c(C#N)c(Nc2ccc3c(c2)OCCO3)n1
-12.0	/	CCn1c(=O)/c(=C\c2ccc(Cl)cc2)s/c1=C(/C#N)C(N)=O
/	2.3	Cc1ccc(C)n1N(C)c1cccc(F)c1C#N
-2.0	11.9	Cc1cc(C)c2cc(C3C(C#N)=C(N)OC4=C3C(=O)CC(C)(C)C4)c(=O)[nH]c2c1 (stereo not drawn)
/	-2.4	Cc1ccc2nc(-c3cccc(C#N)c3)cn2c1
3.0	-3.2	COc1ccc(C(N)=NC#N)cc1
21.0	/	Cc1cc(=O)[nH]c(SCC(=O)NC(C)C2CC3CCC2C3)c1C#N (stereo not drawn)
-7.0	/	CCOc1ccccc1OC(C)C(=O)NC(C)(C#N)C(C)C (stereo not drawn)
/	-0.9	N#CCCn1cccc1CN1CCOCC1
9.0	-2.2	C=CCn1c(O)c(C#N)c(C)cc1=O

Source: PubChem BioAssay
